HKDC1 inh: blocks human hexokinase HKDC1 activity; Q2TB90; recombinant HKDC1, G6PDH/diaphorase resazurin coupled fluorescence; inhibition, % at 20 µM; 340,000 compounds, 0.16% hits; AID 493160;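 active means inhibition above about 35% when tested at 20 µM, limit read from the data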;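 further: plate controls were DMSO wells with enzyme for no effect and DMSO wells lacking enzyme for full effect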
Target sequence (Q2TB90 whole entry, looked up): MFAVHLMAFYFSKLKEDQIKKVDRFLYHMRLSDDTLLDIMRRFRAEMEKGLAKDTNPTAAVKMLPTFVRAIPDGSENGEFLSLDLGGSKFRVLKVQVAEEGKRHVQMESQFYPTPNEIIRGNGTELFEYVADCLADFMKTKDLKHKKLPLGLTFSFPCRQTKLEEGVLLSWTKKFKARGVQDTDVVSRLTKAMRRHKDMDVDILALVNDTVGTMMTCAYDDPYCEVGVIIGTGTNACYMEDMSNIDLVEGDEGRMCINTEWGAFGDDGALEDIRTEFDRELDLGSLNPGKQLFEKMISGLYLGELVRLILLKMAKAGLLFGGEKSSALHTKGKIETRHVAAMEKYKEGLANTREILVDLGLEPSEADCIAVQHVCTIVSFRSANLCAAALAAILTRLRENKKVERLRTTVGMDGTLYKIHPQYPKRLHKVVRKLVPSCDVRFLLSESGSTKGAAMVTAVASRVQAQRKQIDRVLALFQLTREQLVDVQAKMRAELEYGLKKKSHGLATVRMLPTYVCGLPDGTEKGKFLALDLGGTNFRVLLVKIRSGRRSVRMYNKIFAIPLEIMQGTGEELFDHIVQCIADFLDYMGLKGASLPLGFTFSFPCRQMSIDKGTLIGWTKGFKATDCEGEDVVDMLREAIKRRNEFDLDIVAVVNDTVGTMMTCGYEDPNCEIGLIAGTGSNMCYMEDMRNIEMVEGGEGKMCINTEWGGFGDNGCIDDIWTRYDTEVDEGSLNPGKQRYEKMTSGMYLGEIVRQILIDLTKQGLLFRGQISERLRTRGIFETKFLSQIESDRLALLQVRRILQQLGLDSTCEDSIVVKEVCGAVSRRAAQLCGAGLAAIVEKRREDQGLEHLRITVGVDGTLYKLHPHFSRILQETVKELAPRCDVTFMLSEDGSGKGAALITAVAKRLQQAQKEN
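Assay system: recombinant HKDC1 hexokinase; detection: coupled resazurin fluorescence, excitation 525 nm, emission 613 nm; benchmarks: DMSO-plus-enzyme-mix negative control, buffer-substituted positive control; compound dosing: single 20 µM dose; schedule: 90 min at room temperature in dark; also added: glucose plus 1 mM ATP as hexokinase substrates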
Apaf1 inhib: human Apaf-1 inhibition; reconstituted apoptosome caspase-3 activity, DEVD-Rh110 fluorescence; inhibition, % at 20 µM; 330,000 compounds, 0.71% hits; O14727; active means inhibition of at least 40% at 20 µM;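 further: plate controls were DMSO wells for no effect and DEVD-CHO caspase inhibitor wells for full effect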
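System: Apoptosome proteins | Medium: Hepes pH 7.5 with detergent and BSA | Also added: Cytochrome c trigger plus (Z-DEVD)2-Rh110 caspase-3 substrate | Incubation: 30 min compound preincubation, 50 min activation, room temperature | Detection: Rhodamine 110 fluorescence at Ex 480/Em 540 nm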
SENP1 FRET inh: SENP1 (human) catalytic domain inhibition; 360,000 compounds, 0.21% hits; inhibition, % at 10 µM; AID 624204; recombinant SENP1 catalytic domain, CyPet-SUMO1-YPet FRET cleavage; Q9P0U3;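 active means inhibition at least 30% at 10 µM, raw YFP signal under a set limit, fluorescence ratio 0.5 to 1.5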;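 further: 0% = enzyme with DMSO and 100% = no enzyme wells; some results filed as inactive read as strong as hits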
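material = recombinant human SENP1 catalytic domain, His6-tagged | quantity = 20 pM enzyme | reagent = 25 nM SUMO1 FRET substrate | compound dosing = 10 µM single point, 0.5% DMSO | timing = 50 min enzyme reaction, room temperature, light-protected | detection = FRET, CFP and YFP emission | control set = no-enzyme low, enzyme-DMSO high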
PfGluPho inh: PfG6PD (Plasmodium falciparum) enzyme inhibition; 350,000 compounds, 0.78% hits; inhibition, % at 20 µM; PfGluPho enzyme, NADPH resazurin-diaphorase fluorescence;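 active means inhibition reaching at least a set limit at 20 µM in the primary screen, cut at about 59% in these data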;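 further: 0% = DMSO wells with substrate and 100% = DMSO wells lacking glucose-6-phosphate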
* marks the source's active call; other numbers are inactive results.

SMILES	HKDC1 inh	Apaf1 inhib	SENP1 FRET inh	PfGluPho inh
Cc1ccc(CCC(=O)Nc2ccccc2F)s1	2.2	-9.8	-0.9	-7.0
Cc1occc1-c1nc(-c2ccncc2)no1	-9.8	-10.2	-0.6	-3.4
CC(=O)Nc1cccc(NC(=O)CSc2ncc(C(=O)Nc3ccc(F)cc3)c(=O)n2C)c1	0.7	4.5	-1.9	14.7
O=C(Nc1ccccc1)C(=O)Nc1ccccn1	-10.9	-20.8	0.9	3.4
O=C(Nc1nc2cc3c(cc2s1)OCCO3)C1=COCCO1	-0.8	1.9	1.3	10.5
O=C(N/N=C/c1cccc(Oc2ccccc2)c1)c1cccc(Br)c1	-1.6	-15.3	-0.8	37.6
O=C(Nc1ccc(C(=O)N2CCCCC2)cc1)c1cccc([N+](=O)[O-])c1	-5.6	7.6	-1.2	21.3
Cc1c(C(=O)O)[nH]c2c1C(=O)CC(c1ccc(Cl)cc1)C2 (stereo not drawn)	-5.3	-19.7	0.0	-19.3
COc1nccnc1NS(=O)(=O)c1ccc(NC(=S)NC(=O)c2ccccc2F)cc1	-9.0	-8.4	0.6	-22.6
c1ccc(-c2cnc(-c3ccccc3)nn2)cc1	1.6	2.5	3.4	-0.5
CCSc1nnc(NC(=O)c2ccc3c(c2)OCO3)s1	-0.9	-5.6	1.8	85.3*
O=C(NC1=NC2CCCCC2N1)c1ccccc1 (stereo not drawn)	-6.2	5.7	-0.5	-3.3
O=C(COC(=O)c1ccccc1Nc1ccc(SC(F)F)cc1)NC1CC1	-4.3	12.4	0.4	15.1
CN1C(=O)c2ccc(C(=O)Nc3ccc4c(c3)OCO4)cc2C1=O	-3.2	-2.0	0.9	-5.4
Cc1nonc1C(=O)N/N=C/c1cc2c(cc1Br)OCO2	-2.1	-4.8	0.7	47.1
O=C(COC(=O)c1cc(Cl)ccc1O)c1ccc2c(c1)OCO2	-1.2	-3.8	0.4	2.9
CN(C)c1ccc(/C=N/NC(=O)c2ccccc2)cc1	-11.2	-1.0	-2.0	20.9
O=C(Nc1nnc(CCc2ccccc2)s1)c1ccccc1	4.5	12.3	-18.1	3.8
COC(=O)c1sccc1NC(=O)Nc1ccc(OC)c(OC)c1	-0.7	-0.5	2.8	-8.0
COc1ccc(OC)c2sc(NC(=O)C3=COCCO3)nc12	2.3	11.4	0.5	-4.5
O=c1c2ccccc2oc2cc(C#Cc3ccccn3)ccc12	-3.3	13.7	0.9	2.1
O=C1COc2ccc(C(=O)COC(=O)c3ccccc3F)cc2N1	-1.6	-3.7	-2.8	1.5
Cc1ccc(O)c(NC(=O)CCC2CCCCC2)c1	-5.2	8.5	2.6	0.9
c1cc(-c2cc3cc4c(cc3cn2)OCO4)cs1	4.4	8.1	-0.3	36.4
CCCCOc1ccc(-c2cn3ccccc3n2)cc1[N+](=O)[O-]	-2.1	6.9	2.7	40.9
COc1cccc(N/C=C/C(=O)c2ccc(Br)cc2)c1	0.1	5.5	-38.6	47.8
C/C(=N\NC(=O)c1cccc(S(=O)(=O)Nc2cccc(Cl)c2)c1)c1cccs1	3.3	5.5	3.0	-15.6
Cc1nc(-c2ccc(C(=O)N3CCCC3)cc2)cs1	-5.6	-1.5	0.2	6.7
O=C(Nc1ccccc1F)c1ccc(OCc2ccccc2)cc1	-11.1	0.1	1.1	6.9
O=C(CSc1ccc(-c2ccccc2)nn1)N1CCCCC1	-3.1	-1.5	-6.4	-0.7

Reprinted from the results shown for reference:
SMILES	HKDC1 inh	Apaf1 inhib	SENP1 FRET inh	PfGluPho inh
O=C(Nc1ccccc1F)c1ccc(OCc2ccccc2)cc1	-11.1	0.1	1.1	6.9
O=C(CSc1ccc(-c2ccccc2)nn1)N1CCCCC1	-3.1	-1.5	-6.4	-0.7

The results go on.
SMILES	HKDC1 inh	Apaf1 inhib	SENP1 FRET inh	PfGluPho inh
O=C(Nc1ccc([N+](=O)[O-])cc1)c1cccc(S(=O)(=O)Nc2ccccn2)c1	2.8	1.2	0.5	-33.9
Cc1nonc1C(=O)N/N=C/c1ccccc1	-9.6	-7.8	0.5	0.4
Cn1ccsc1=NC(=O)c1ccc(S(=O)(=O)C(F)F)cc1	-1.8	0.0	0.6	2.3
CC(=O)Nc1cccc(NC(=O)CSc2ncc(C(=O)Nc3ccccc3)c(=O)n2C)c1	-5.2	-8.7	-11.3	15.8
Cc1ccc(-c2noc(-c3ccoc3C)n2)cc1	-4.6	8.7	-3.3	-8.9
O=C(N/N=C/c1ccc2c(c1)OCO2)c1ccc(Br)o1	8.7	1.2	0.9	-5.7
COc1ccccc1OCc1ccc(C(=O)Nc2ccccc2F)cc1	-11.2	5.4	2.2	-12.1
c1ccc(-c2ccc(-c3nc(-c4ccccn4)no3)cc2)cc1	9.2	28.0	2.0	27.6
COc1ccc(NS(=O)(=O)c2ccc(NC(=S)NC(=O)c3ccc(F)cc3)cc2)nn1	-9.3	15.7	0.5	-7.5
Cn1c(SCC(=O)NCCc2ccccc2)ncc(C(=O)Nc2ccc(F)cc2)c1=O	0.5	-2.2	3.7	8.6
COc1cccc(NC(=O)Nc2ccc3c(c2)CCC3)c1	-1.4	4.8	0.3	15.6
O=C(OCc1ccccc1)N1CCc2ccccc21	-0.9	13.6	-1.2	-2.0
COCC(=O)Nc1nc(-c2ccc(-c3ccccc3)cc2)cs1	-5.2	-1.2	-2.5	-8.4
COc1ccc(-c2noc(-c3ccoc3C)n2)cc1OC	2.5	6.1	0.2	-1.9
COc1ccc(NC(=O)Nc2ccccc2OC)cc1	-6.7	-11.8	1.4	15.2
Cc1cc(C)n2nc(-c3cccc(Br)c3)cc2n1	-0.3	15.3	2.8	38.7
O=C(Nc1ccc(F)cc1)Nc1ccc2c(c1)OCO2	-4.9	5.9	-1.0	30.9
CC(=O)Nc1ccc(NC(=O)CSc2ncc(C(=O)Nc3ccc(Cl)cc3)c(=O)n2C)cc1	-0.3	11.5	-2.1	-9.8
COc1ccc(NC(=O)c2cccc([N+](=O)[O-])c2)cc1	-0.6	-15.7	0.5	11.7
CCNC(=O)c1ccc(CSc2nc3ccccc3s2)cc1	-1.9	-6.8	-3.2	2.8
CCOC(=O)c1cc2sccc2n1CC(=O)N1CCN(C(=O)c2ccco2)CC1	-11.2	-18.6	0.2	1.8
Fc1ccc2cc(-c3ccccc3F)ncc2c1	-4.1	14.8	2.2	-1.0
N/C(=N\OC(=O)c1ccccc1Cl)c1ccccn1	-7.4	-13.1	-0.8	0.0
COc1ccc(/C=C/C(=O)c2ccccc2O)cc1	12.9	4.6	0.6	8.9
O=C(Nc1cccc(Br)c1)c1ccc(CSc2ccccc2)cc1	-0.5	5.2	2.3	-6.5
COc1cccc(C(=O)Nc2ccccc2)c1	-4.9	-2.0	1.0	7.3
Cc1occc1C(=O)N/N=C/c1ccc(Cl)c([N+](=O)[O-])c1	1.3	-0.3	1.0	1.9
Cc1ccc(OC(=O)c2ccc(S(=O)(=O)N(C)C)cc2)c(-n2nc3ccccc3n2)c1	9.9	-0.5	-1.2	12.6
COc1ccc(-c2noc(-c3ccco3)n2)cc1OC	-2.4	0.0	-0.6	-13.5
O=C(Nc1ccc(Cl)cn1)Nc1ccccc1F	-1.3	5.3	1.0	3.5
O=C1COc2ccc(C(=O)COC(=O)c3ccccc3[N+](=O)[O-])cc2N1	2.9	5.6	2.4	5.2
CC(C)(C)c1ccc(NC(=O)c2ccccc2)c([N+](=O)[O-])c1	-5.8	14.3	0.9	1.2
Cc1cc(C(=O)NN=Cc2ccc(OC(=O)c3ccco3)cc2)c(C)o1	-0.6	11.6	2.2	13.0
C=CCNC(=O)C1CC(=O)N(c2ccc(OCc3ccccc3Cl)cc2)C1 (stereo not drawn)	-2.5	0.2	0.5	-3.4
Cn1c(-c2ccc(C(F)(F)F)cc2)cc2onc(-c3ccccc3)c2c1=O	-1.8	9.4	1.1	7.5
CCOC(=O)c1ccc(NC(=O)Nc2ccccn2)cc1	12.2	7.2	0.8	17.9
Fc1ccccc1/C=N/Nc1ncnc2ccccc12	0.1	-1.9	0.2	30.1
COc1ccc2cc(C3=CCCCC3)ncc2c1	7.7	15.7	-5.8	39.9
Cc1cccc(C(=O)NNC(=O)c2ccc(-c3ccccc3)cc2)c1	-0.6	0.1	4.0	-10.6
COc1cccc(-c2cc3onc(-c4ccccc4)c3c(=O)n2C)c1	1.0	20.8	-0.8	13.6
O=C(Nc1nc2c(F)cc(F)cc2s1)c1ccco1	0.9	15.4	3.3	-9.3

Grouped by structure: those above containing an aryl methoxy group
SMILES	HKDC1 inh	Apaf1 inhib	SENP1 FRET inh	PfGluPho inh
COc1nccnc1NS(=O)(=O)c1ccc(NC(=S)NC(=O)c2ccccc2F)cc1	-9.0	-8.4	0.6	-22.6
COC(=O)c1sccc1NC(=O)Nc1ccc(OC)c(OC)c1	-0.7	-0.5	2.8	-8.0
COc1ccc(OC)c2sc(NC(=O)C3=COCCO3)nc12	2.3	11.4	0.5	-4.5
COc1cccc(N/C=C/C(=O)c2ccc(Br)cc2)c1	0.1	5.5	-38.6	47.8
COc1ccccc1OCc1ccc(C(=O)Nc2ccccc2F)cc1	-11.2	5.4	2.2	-12.1
COc1ccc(NS(=O)(=O)c2ccc(NC(=S)NC(=O)c3ccc(F)cc3)cc2)nn1	-9.3	15.7	0.5	-7.5
COc1cccc(NC(=O)Nc2ccc3c(c2)CCC3)c1	-1.4	4.8	0.3	15.6
COc1ccc(-c2noc(-c3ccoc3C)n2)cc1OC	2.5	6.1	0.2	-1.9
COc1ccc(NC(=O)Nc2ccccc2OC)cc1	-6.7	-11.8	1.4	15.2
COc1ccc(NC(=O)c2cccc([N+](=O)[O-])c2)cc1	-0.6	-15.7	0.5	11.7
COc1ccc(/C=C/C(=O)c2ccccc2O)cc1	12.9	4.6	0.6	8.9
COc1cccc(C(=O)Nc2ccccc2)c1	-4.9	-2.0	1.0	7.3
COc1ccc(-c2noc(-c3ccco3)n2)cc1OC	-2.4	0.0	-0.6	-13.5
COc1ccc2cc(C3=CCCCC3)ncc2c1	7.7	15.7	-5.8	39.9
COc1cccc(-c2cc3onc(-c4ccccc4)c3c(=O)n2C)c1	1.0	20.8	-0.8	13.6

This is a subset, so the mix of outcomes need not match the whole.
